# Rango release inh = inhibition of RanGTP-driven Rango-importin beta dissociation. Potency, µM (highest dose often 46.1 µM), for inactives: top-dose activity change, negative = inhibition. hit rate 0.071% among 340,000. Biochemical FRET Rango-importin beta, RanGTP-induced dissociation; active means falling FRET ratio curve, often poorly fitted, with flat reads before Ran was added; inconclusive means other falling curves, or compound fluorescence or quenching; inactive means flat or rising ratio curve;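 note: potency is the fitted concentration of half-maximal effect; % of control where 0% means no effect; nearly all actives have a fitted effect of over 45% in size; -100% = wells without RanGTP and RCC1; the record marks most hits as doubtful in a second field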
#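 Rango/importin beta premix (0.1/0.25 uM final), PBS + 1 mM DTT + 0.02% Tween-20 + 0.1% BSA; cpd 5 min RT; FRET pre-read; + RanGTP-RCC1 (0.6 uM Ran, 2 mM GTP, 0.2 uM RCC1); 45 min RT; FRET post-read, ex 430, em 486/530 nm.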
# miR-21 reporter = raises the signal of a miR-21 reporter; HeLa miR-21 FLuc reporter, luciferase, 48 h; Potency, µM (highest dose often 38.3 µM), without a hit: at the highest dose reporter change, positive = more light; 340,000 tested, under 10 active; AID 2288; active = well fitted rising curve with a large enough effect; inconclusive = small, poorly fitted or top-dose-only effect; inactive = no such curve, though single readings can be large or run the other way;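 note: % of control where 0% means no effect; miR-21 action dims this reporter so a rising signal means less miR-21 action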
#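 HeLa cells stably expressing CMV-driven firefly luciferase with a downstream miR-21 binding sequence, endogenously expressing miR-21, were treated with titrations (up to about 40uM final) for 48 hours at 37 degree Celsius. Luciferase luminescence was read after lysis.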
# GLA inh pH 4.5 = inhibitors of human alpha-galactosidase A at pH 4.5; P06280; purified enzyme, 4-MU-alpha-Gal fluorescence, pH 4.5; activity change, negative = inhibition, % at 105 µM; 230,000 tested, under 10 active; inconclusive = small, poorly fitted or top-dose-only inhibition, or a rising curve; inactive = flat fitted curve, though single readings scatter; no compound was filed as active;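 note: 0% = full activity with enzyme and -100% = basal without enzyme; dose as in the result columns while the protocol names 77 µM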
# Target sequence (P06280 whole entry, looked up): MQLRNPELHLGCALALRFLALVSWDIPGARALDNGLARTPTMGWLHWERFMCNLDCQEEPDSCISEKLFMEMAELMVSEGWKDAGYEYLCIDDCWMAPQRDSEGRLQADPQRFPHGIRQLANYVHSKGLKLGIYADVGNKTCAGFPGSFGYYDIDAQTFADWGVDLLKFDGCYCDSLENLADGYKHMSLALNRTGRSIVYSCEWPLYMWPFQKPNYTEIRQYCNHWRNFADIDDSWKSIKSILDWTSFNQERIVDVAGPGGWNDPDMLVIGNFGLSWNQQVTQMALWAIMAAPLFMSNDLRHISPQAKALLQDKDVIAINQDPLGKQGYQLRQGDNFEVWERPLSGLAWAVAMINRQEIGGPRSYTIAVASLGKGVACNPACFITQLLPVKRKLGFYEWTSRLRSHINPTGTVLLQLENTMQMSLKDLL
# Rango complex inh = prevents formation of the Rango-importin beta complex; Rango CFP/YFP FRET sensor + importin beta, 45 min; hit rate 0.031% among 340,000; AID 540263; Potency, µM (series often up to 92.2 µM), without a hit: at the highest dose inhibition of complex formation; Q14974; active = rising FRET ratio curve, often small or poorly fitted; inconclusive = mostly compound fluorescence or quenching in the first reads; inactive = flat curves in all reads;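 note: potency is the fitted concentration of half-maximal effect; 0% = DMSO wells and 100% = buffer wells lacking importin beta; nearly all actives have a fitted effect of over 15% in size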
#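 FRET biosensor Rango (snurportin 1 IBB between N-terminal EYFP and C-terminal Cerulean), 50 nM in PBS/1 mM DTT/0.02% Tween-20/0.1% BSA, preincubated 5 min RT with compound; 0.125 microM importin beta added, 45 min RT, CFP/YFP FRET ratio read.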
# The depositor's hits bear a star; ? = inconclusive; . = no result given. An excerpt; count on the stated rates, not on these rows.
Compound,Rango release inh,miR-21 reporter,GLA inh pH 4.5,Rango complex inh
COc1ccccc1CN1CCN(C(=O)c2ccco2)CC1,4.2%,-8.8%,.,2.3%
COc1ccc(OC)c(S(=O)(=O)Nc2cc3c4c(c2)CCN4C(=O)CC3)c1,-8.8%,.,.,-0.9%
Cc1cc(OCC(=O)NCCCN2CCOCC2)c2c(C)c(C)c(=O)oc2c1,6.2%,1.2%,.,1.5%
Cc1cccc(NC(=O)CN(C)S(=O)(=O)c2ccc(Br)cc2)n1,1.7%,-2.3%,-1.4,-3.8%
COc1ccc(C(=O)CC(=O)C(=O)Nc2c(C)cccc2C)cc1,-18.8%,3.4%,.,-0.1%
Cc1occc1-c1nnc(SCC(=O)N2CCN(c3ccccc3)CC2)n1C,-7.7%,6.0%,-3.7,2.5%
CC1Cn2c(nnc2-c2ccc(F)cc2)S1 (stereo unspecified),30.5%,1.0%,6.4,4.2%
CN1CCC(C(=O)N2CCCC(C(=O)c3ccc4c5c(cccc35)CC4)C2)CC1 (stereo unspecified),-17.8%,1.6%,1.1,0.2%
CC(Sc1nnnn1C1CC1)C(=O)N1c2ccccc2NC(=O)C1(C)C (stereo unspecified),-14.8%,.,.,1.0%
CCc1ccc(/C=C(\C)C(=O)c2c(C)cc(C)[nH]c2=O)cc1,-2.2%,-1.5%,-6.4,-1.8%
Cc1cccc(N2CCN(C(=O)NC3CCCCC3)CC2)c1C,14.5%,-10.7%,.,1.5%
Cc1ccc(C(=O)NCCCCNC(=O)c2ccc(C)o2)o1,-9.6%,-1.9%,6.4,3.8%

# The listing continues:
Compound,Rango release inh,miR-21 reporter,GLA inh pH 4.5,Rango complex inh
CC(C)OC(=O)C(C#N)c1nc2ccccc2nc1N1CCN(Cc2ccc3c(c2)OCO3)CC1 (stereo unspecified),.,-4.0%,4.4,.
C=CCn1c(=O)c2ccccc2n2c(SCC(=O)NCCc3ccccc3)nnc12,-0.7%,2.1%,-5.4,-1.1%
CCOC(=O)c1cc(NC(=O)N(CC)C2CCCCC2)c(C)nc1C,-6.9%,-8.2%,-1.8,-0.1%
CCN1C(=O)C(Cc2nc3ccccc3c(=O)n2-c2ccccc2)c2ccccc21 (stereo unspecified),-0.8%,-17.9%,-10.5,2.0%
CCSc1nnc(CNC(=O)C23CC4CC(CC(C4)C2)C3)n1Cc1ccccc1,2.6%,-14.1%,-4.3,2.5%
O=C(COc1ccc(F)cc1Br)NCC1(N2CCOCC2)CCCCC1,18.0%,.,.,-1.0%
Cc1ccc(NC(=O)Nc2ccc3c(c2)OCO3)c(OC(F)F)c1,-8.0%,-50.7%,.,1.0%
Cc1ccccc1OCC(=O)NC(=S)Nc1ccc(Br)c(C)n1,25.8%,-18.0%,11.8,-0.9%
O=C(/C=C/c1cccs1)NC(=S)Nc1ccc(S(=O)(=O)Nc2ccccc2C(F)(F)F)cc1,0.3%,-9.8%,-2.1,-0.9%
CC(NC(=O)c1ccc(Cn2cc([N+](=O)[O-])cn2)o1)c1ccccc1 (stereo unspecified),-4.1%,-5.4%,2.4,-4.6%
COc1ccc(CC(=O)NNC(=O)c2cccs2)cc1OC,27.7%,-2.6%,8.6,1.2%
O=C(c1ccco1)N1CCN(C(=O)C2CC(=O)N(c3ccc(Cl)cc3)C2)CC1 (stereo unspecified),-0.2%,0.2%,.,0.6%

# New compounds follow.
Compound,Rango release inh,miR-21 reporter,GLA inh pH 4.5,Rango complex inh
COc1cc2sc(-c3ccccc3OC)c(-c3ccc(OCCN4CCOCC4)cc3)c2cc1OC,1.9%,.,.,-3.6%
O=C(Nc1cc(S(=O)(=O)N2CCOCC2)ccc1Oc1ccc(F)cc1)C1=COCCO1,22.8%,.,.,15.1%
COC(=O)c1nn(-c2ccc(C)cc2)ccc1=O,5.3%,-0.9%,7.9,0.0%
O=C(O)CSCC(=O)Nc1cc(C(F)(F)F)ccc1Cl,0.2%,-0.3%,-6.4,-2.3%
CCc1cc2ccc(C)cc2nc1SCC(=O)NC1CCCC1,1.6%,-0.6%,.,7.3%
COc1ccc2cc(C(=O)N(C)CC(=O)Nc3ccccc3Br)ccc2c1,?,.,.,-0.3%
Cc1nn2c(-c3cccnc3)ccnc2c1-c1ccccc1,17.7%,-51.0%,-0.9,3.9%
Cc1c(NC=C(C#N)C#N)c(=O)n(-c2ccccc2)n1C,-19.1%,-1.2%,-5.1,3.6%
COCCCOc1ccnc(CS(=O)c2nc3ccccc3[nH]2)c1C (stereo unspecified),11.7%,-27.5%,-2.3,1.5%
CCOc1ccc(S(=O)(=O)N2CCCC(C(=O)NCC3CCCO3)C2)cc1Cl (stereo unspecified),-12.9%,.,.,-2.5%
Cc1c(OC(C)C(=O)O)ccc2c(-c3ccccc3)cc(=O)oc12 (stereo unspecified),3.6%,-3.3%,.,-0.1%
Cc1ccc(C(O)c2nccn2C)o1 (stereo unspecified),-21.8%,-0.2%,0.4,?

# Later entries:
Compound,Rango release inh,miR-21 reporter,GLA inh pH 4.5,Rango complex inh
C=CCn1c(SCC(=O)N2CCN(c3ccccc3)CC2)nc2c([nH]c3ccccc32)c1=O,-9.4%,5.0%,.,?
COc1ccc(C(=O)C=CNNC(=O)c2ccc(Cl)cc2)cc1,1.8%,6.6%,.,-3.2%
CCOC(=O)CSc1nc2ccc(NC(=O)CSc3nnnn3Cc3ccccc3)cc2s1,7.2%,-7.5%,2.1,?
Cc1ccc(C(=O)N2CCCC(CCC(=O)N3CCN(c4ccccn4)CC3)C2)cn1 (stereo unspecified),?,3.0%,.,?
CC1(C)CC(=O)C2=C(C1)OC(N)=C(C#N)C2c1ccccc1OC(=O)N1CCOCC1 (stereo unspecified),-4.4%,1.2%,-6.3,-5.6%
O=C1NC(=O)/C(=C\c2ccc(OCc3ccccc3)cc2)S1,-7.5%,-24.0%,.,-0.7%
CC(Nc1nc(-c2ccncc2)nc2ccccc12)c1ccccc1 (stereo unspecified),1.6%,11.2%,.,0.2%
O=c1[nH]cc(NCc2ccccc2)c(=O)[nH]1,4.3%,.,.,0.6%
COc1cccc(NC(=O)N2CCN(c3cccc(C)c3C)CC2)c1,-4.7%,-23.5%,-5.0,-1.5%
O=C(CSc1nc2[nH]c(=O)[nH]c(=O)c2s1)Nc1cccc(F)c1,-19.9%,.,.,?
C/C(CC(=O)NCCCN1CCOCC1)=N\NC(=O)COc1ccc(Cl)cc1,15.8%,-0.6%,2.2,3.2%
CCn1c(SCC(=O)NNC(=O)c2ccc(OC)cc2)nnc1-c1cccnc1,22.4%,0.4%,-0.4,5.5%

# Next records
Compound,Rango release inh,miR-21 reporter,GLA inh pH 4.5,Rango complex inh
CS(=O)(=O)c1ccc2nc(NC(=O)c3cccc(NS(=O)(=O)c4ccc(F)c(F)c4)c3)sc2c1,1.5%,-12.7%,-9.2,-0.2%
CCC(CC)C(=O)Nc1cc([N+](=O)[O-])ccc1Cl,11.9%,-14.0%,4.0,-0.2%
Cc1ccc2nc(NC(=O)C3CC(=O)N(Cc4ccco4)C3)sc2c1 (stereo unspecified),-0.4%,-1.0%,2.5,-0.2%
COc1ccc(C(c2c(C)n(C)n(-c3ccccc3)c2=O)c2c(C)n(C)n(-c3ccccc3)c2=O)cc1,17.8%,1.5%,.,-0.3%
OC(CN1C2=NCCCN2c2ccccc21)c1ccc(Br)cc1 (stereo unspecified),2.2%,8.5%,7.8,-2.1%
CCOC(=O)c1sc(=NC(=O)CCS(=O)(=O)c2ccccc2)n(C)c1C,-10.2%,-5.4%,1.1,-0.7%
CCCCOc1cccc(C(=O)NC(=S)Nc2cccnc2)c1,-0.8%,-20.4%,0.6,-0.7%
COc1cc2c(cc1OC)CN(C(=O)c1ccccc1C(=O)O)CC2,-6.7%,0.7%,-0.4,?
CSc1ncccc1C(=O)OCc1ccc([N+](=O)[O-])cc1,3.3%,-14.5%,-15.7,3.9%
CCOc1ccc(C(C)NC(=O)c2ccccc2OCc2c(C)noc2C)cc1OCC (stereo unspecified),-3.6%,-4.3%,.,3.0%
O=C(Nc1ccc(N2CCN(C(=O)c3ccco3)CC2)c(Cl)c1)c1cccnc1,5.3%,15.3%,7.7,3.2%
COc1cc(Nc2nnc(C)s2)c(Cl)cc1Cl,-21.9%,3.2%,-2.6,3.4%

# Remaining list, next part
Compound,Rango release inh,miR-21 reporter,GLA inh pH 4.5,Rango complex inh
CC1(C)C(c2ccccc2)=NC(c2ccc(F)cc2)N1O (stereo unspecified),0.5%,-6.4%,-13.0,-0.7%
Cc1ccc(/C=C2\SC(=S)N(CCC(=O)NNC(=O)c3ccncc3)C2=O)cc1,5.1%,-0.9%,-2.8,-2.6%
CCOC(=O)C1=CC[C@]2(C)c3c(c4ccccc4n3C)C(=O)C1N2C,-12.8%,.,.,-0.5%
Cc1nc2ccc(NS(=O)(=O)c3ccccc3Cl)cc2s1,-2.4%,.,.,?
O=C(O)c1nc2ccccc2nc1C(=O)O,-9.6%,-45.1%,-2.3,0.7%
O=C(/C=C/c1ccc(S(=O)(=O)N2CCOCC2)cc1)NCCc1ccc(C(F)(F)F)cc1,-8.5%,.,.,-1.0%
Cc1cc(=O)n2nc(N3CCC(C(=O)NCCc4ccccc4)CC3)sc2n1,3.4%,-6.5%,3.2,0.0%
CCN(Cc1ccccc1)C(=O)Cn1cnc2c1c(=O)n(C)c(=O)n2C,1.2%,0.8%,1.9,-4.9%
COc1ccc(C(=O)NCc2nnc(SCC(=O)N3CCCC3)o2)cc1,2.8%,0.2%,.,1.1%
O=C(NC1CCCCCCC1)c1cccnc1,-7.6%,-22.8%,.,-1.0%
C/C(=N\Nc1cc(C)nc(NCc2ccccc2)n1)c1ccc([N+](=O)[O-])cc1,30.3%,-2.0%,-8.9,-3.8%

# Given with two lines to a compound: entries from further up.
# Values in the order – Rango release inh	miR-21 reporter	GLA inh pH 4.5	Rango complex inh
- OC(CN1C2=NCCCN2c2ccccc21)c1ccc(Br)cc1 (stereo unspecified)
  2.2%	8.5%	7.8	-2.1%
- CCOC(=O)c1sc(=NC(=O)CCS(=O)(=O)c2ccccc2)n(C)c1C
  -10.2%	-5.4%	1.1	-0.7%
- CCCCOc1cccc(C(=O)NC(=S)Nc2cccnc2)c1
  -0.8%	-20.4%	0.6	-0.7%
- COc1cc2c(cc1OC)CN(C(=O)c1ccccc1C(=O)O)CC2
  -6.7%	0.7%	-0.4	?
- CSc1ncccc1C(=O)OCc1ccc([N+](=O)[O-])cc1
  3.3%	-14.5%	-15.7	3.9%
- CCOc1ccc(C(C)NC(=O)c2ccccc2OCc2c(C)noc2C)cc1OCC (stereo unspecified)
  -3.6%	-4.3%	.	3.0%
- O=C(Nc1ccc(N2CCN(C(=O)c3ccco3)CC2)c(Cl)c1)c1cccnc1
  5.3%	15.3%	7.7	3.2%
- COc1cc(Nc2nnc(C)s2)c(Cl)cc1Cl
  -21.9%	3.2%	-2.6	3.4%
- CC1(C)C(c2ccccc2)=NC(c2ccc(F)cc2)N1O (stereo unspecified)
  0.5%	-6.4%	-13.0	-0.7%
- Cc1ccc(/C=C2\SC(=S)N(CCC(=O)NNC(=O)c3ccncc3)C2=O)cc1
  5.1%	-0.9%	-2.8	-2.6%
- CCOC(=O)C1=CC[C@]2(C)c3c(c4ccccc4n3C)C(=O)C1N2C
  -12.8%	.	.	-0.5%
- Cc1nc2ccc(NS(=O)(=O)c3ccccc3Cl)cc2s1
  -2.4%	.	.	?
- O=C(O)c1nc2ccccc2nc1C(=O)O
  -9.6%	-45.1%	-2.3	0.7%
- O=C(/C=C/c1ccc(S(=O)(=O)N2CCOCC2)cc1)NCCc1ccc(C(F)(F)F)cc1
  -8.5%	.	.	-1.0%
- Cc1cc(=O)n2nc(N3CCC(C(=O)NCCc4ccccc4)CC3)sc2n1
  3.4%	-6.5%	3.2	0.0%
- CCN(Cc1ccccc1)C(=O)Cn1cnc2c1c(=O)n(C)c(=O)n2C
  1.2%	0.8%	1.9	-4.9%

# Compound activity as filed in PubChem.
